# N370S GC – N370S glucocerebrosidase modulation, Gaucher chaperone candidate; N370S GC spleen homogenate, 4MU-glucoside fluorescence; Potency, µM (titrated, usually from 59.4 µM), for the others: at the highest dose activity change, negative = inhibition, most hits filed as inhibitors; hit rate 0.092% among 330,000; AID 2101;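 note: 0% = full enzyme activity and -100% = no enzyme basal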
# FEN1 inh – blocks human flap endonuclease 1 | P39748 | Recombinant FEN1 flap cleavage, fluorescence, 15 min | Potency, µM (titrated, usually from 114 µM), inactives show at the highest dose activity change, negative = inhibition, actives largely listed as inhibitors | hit rate 0.35% among 390,000 | AID 588795; note: nearly all actives have a fitted effect of over 65% in size
# Target sequence (P39748 whole entry, looked up): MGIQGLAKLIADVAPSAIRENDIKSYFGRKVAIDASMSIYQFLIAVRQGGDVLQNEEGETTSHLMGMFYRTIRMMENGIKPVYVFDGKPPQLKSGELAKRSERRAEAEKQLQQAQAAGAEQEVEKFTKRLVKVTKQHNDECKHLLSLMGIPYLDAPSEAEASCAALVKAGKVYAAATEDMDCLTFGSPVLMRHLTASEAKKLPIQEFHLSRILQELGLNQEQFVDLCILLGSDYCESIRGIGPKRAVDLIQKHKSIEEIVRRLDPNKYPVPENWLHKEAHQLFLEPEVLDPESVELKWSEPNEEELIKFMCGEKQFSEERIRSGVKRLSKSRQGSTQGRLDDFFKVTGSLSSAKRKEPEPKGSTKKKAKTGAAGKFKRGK
#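 Recombinant FEN1 (10 nM) was preincubated with pin-transferred compounds for 15 min at room temperature, then flap DNA substrate (50 nM final) was added. Plates were read at 0 and 15 min, and normalized concentration–response data were fitted to a four-parameter Hill equation.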
# The depositor's hits bear a star; u = inconclusive; x = no result given. Calls come from the whole dose curve; as a rule, active = well fitted curve in the direction sought with a large enough effect; inconclusive = small, poorly fitted or top-dose-only effect, or another doubt; inactive = no such curve, though single readings can be large; an effect the other way counts as inactive or inconclusive. Unless noted, % is set by controls: 0 for no effect and ±100 for the full control effect; potency is the fitted concentration of half-maximal effect.
# Order of results – N370S GC	FEN1 inh
- COc1ccc(NC(=O)/C(C#N)=C/c2ccc(OCCN3CCOCC3)c(OC)c2)c(OC)c1
→ 1%	-20%
- CCO[C@H]1OC(C(=O)NC2CC2)=C[C@@H](c2csc3ccccc23)[C@@H]1CCCO
→ 4%	16%
- Cc1ccc(/C=C/C(=O)c2cc(Br)ccc2OC(=O)c2ccco2)cc1
→ 4%	-15%
- C=CCn1c(SCC(=O)c2cc(C)n(CC3CCCO3)c2C)nnc1-c1ccccc1 (stereo not given)
→ 1%	4%
- COc1ccc(CCNC(=O)CCS(=O)(=O)c2ccc(C)cc2)cc1OC
→ 4%	-9%
- COc1cc2ccccc2cc1C(=O)OCC(=O)N(CC(C)C)c1c(N)n(Cc2ccccc2)c(=O)[nH]c1=O
→ 3%	5%
- CC(=O)N1CCCc2cc(S(=O)(=O)Nc3ccc(OC(F)(F)F)cc3)ccc21
→ x	11%
- O=[N+]([O-])C(/C=C(/Cl)[N+](=O)[O-])=C(N1CCCCC1)N1CCCCC1
→ 3%	0%
- COc1ccc(OCCCNCCc2ccccc2)cc1
→ -11%	17%
- C/C1=C2N=C(/C=C3N=C(/C(C)=C4\[N-]C(C)(C5N=C1C(C)(CCC(=O)NCC(C)OP(=O)([O-])O[C@H]1C(O)C(n6cnc7cc(C)c(C)cc76)O[C@@H]1CO)C5CC(N)=O)C(C)(CC(N)=O)C4CCC(N)=O)C(C)(CC(N)=O)C\3CCC(N)=O)C(C)(C)C/2CCC(N)=O.[CH2-]C1OC(n2cnc3c(N)ncnc32)C(O)C1O.[Co] (stereo not given in full)
→ -8%	x
- COc1nc(-c2ccc(Cl)cc2)nnc1C
→ 8%	-6%
- O=C(CC1S/C(=N/N=C/c2ccco2)NC1=O)Nc1ccccc1 (stereo not given)
→ 7%	0%
- Cc1cccc(Oc2ccccc2NC(=O)C2=COCCO2)c1
→ x	-18%
- CN(CC(CC(=O)Nc1nncs1)c1ccccc1)S(=O)(=O)c1ccccc1 (stereo not given)
→ 0%	-22%
- COc1ccc(OCc2cc(C(=O)N(C)CC3CCCCO3)no2)c(Cl)c1 (stereo not given)
→ u	-9%

# Going on with the list:
# Order of results – N370S GC	FEN1 inh
- CC(NC(=O)c1ccc(N2CCNCC2)c([N+](=O)[O-])c1)C12CC3CC(CC(C3)C1)C2 (stereo not given)
→ -21%	1%
- COc1cccc(OCCn2c(C)c(/C=N/n3cnnc3)c3ccccc32)c1
→ 6%	-13%
- CCn1c(CCCCc2n[nH]c(=S)n2CC)n[nH]c1=S
→ -6%	17%
- CCc1nc(SCC(=O)OC(C)C)c2ccccc2n1
→ -3%	-10%
- Nc1nc(-c2ccc(Br)cc2)c(S(=O)(=O)c2ccccc2)s1
→ 7%	-16%
- COC(=O)Cn1nnc(N2CCOCC2)n1
→ -2%	-3%
- c1ccc(N2CCN(c3ncnc4c3nc3n4CCCCC3)CC2)cc1
→ x	3%
- O=C(O)c1cccc(Oc2ccc([N+](=O)[O-])cc2)c1
→ 13%	-9%
- CCCCn1c(SCC(=O)OCC)nnc1-c1ccoc1C
→ u	-10%
- CCOCCCNC(=O)C(NC(=O)c1ccc(NC(C)=O)cc1)c1ccc(OC)cc1 (stereo not given)
→ 3%	-4%
- O=C(O)CSCC(=O)Nc1ccc(-c2nc3ccccc3s2)cc1
→ 13%	-11%
- Cc1cc(NS(=O)(=O)c2ccc(NC(=O)c3cnc(Cl)c(Cl)c3)cc2)nc(C)n1
→ x	11%
- Cn1cnc2c1c(=O)n(Cc1c(Cl)cccc1Cl)c(=O)n2C
→ 7%	-4%
- O=C(CN1C(=O)NC(Cc2ccccc2)C1=O)Nc1ccc(F)c(Cl)c1 (stereo not given)
→ x	-10%
- CCC(=O)N1CCN(c2ccc(NC(=O)c3ccc4ccccc4c3)cc2)CC1
→ -2%	1%

# Carrying on.
# Order of results – N370S GC	FEN1 inh
- CC(=O)c1cccc(NC(=O)C2CCCC2)c1
→ -23%	-8%
- CCOC(=O)CSc1nnc2c(n1)C1(C)CCC2C1(C)C (stereo not given)
→ 7%	-13%
- CC1CC=CC2C1C(=O)N(Cc1ccccc1)C2c1ccoc1 (stereo not given)
→ 6%	-20%
- COC(=O)c1cc2sc(Cl)cc2n1CC(=O)Nc1cc(OC)cc(OC)c1
→ x	23%
- Cc1cc(/C=N/NC(N)=O)c(C)n1-c1ccc(F)cc1
→ 0%	0%
- CC(=O)Nc1ccc(S(=O)(=O)N2CCN(C(=O)c3ncoc3-c3cccc(C)c3)CC2)cc1
→ -6%	-3%
- Cc1cc(OC(=O)c2ccco2)c2c(C)cc(=O)oc2c1
→ -3%	-11%
- CCN(CC)c1ccc(NC(=O)c2ccc(Br)o2)cc1
→ 2%	2%
- Cc1ccc(OCC(=O)Nc2ccc3c(c2)CCC3)c([N+](=O)[O-])n1
→ u	1%
- O=C(Nc1ccc(F)c(F)c1)c1cc(S(=O)(=O)N2CCN(c3ccccn3)CC2)ccc1F
→ 0%	-12%
- Cc1cccc(NC(=O)CSc2nc3ccccc3c(=O)n2CC2CCCO2)c1 (stereo not given)
→ x	-20%
- O=C(Nc1sc(-c2ccccc2)cc1C(=O)O)c1ccccc1
→ -7%	u
- CNc1snc(C)c1C(=O)OC(C)C(=O)Nc1cccc(C)c1 (stereo not given)
→ x	0%
- CCNS(=O)(=O)c1ccc(NC(=O)Nc2ccc3c(c2)OCO3)cc1
→ -2%	-18%
- CCO[C@H]1OC(C(=O)NC2CC2)=C[C@@H](c2ccc(Br)cc2)[C@@H]1CCCO
→ 9%	-1%

# Other structures:
# Order of results – N370S GC	FEN1 inh
- O=C(Cc1c2ccccc2nc2ccccc12)c1ccccc1
→ u	-7%
- CCCCCN1CC(O)=C(c2ccccc2)C1=N
→ -4%	-11%
- COc1ccccc1C(=O)Nc1nnc(S(=O)(=O)N2CCC(C)CC2)s1
→ 2%	-14%
- COc1ccc(/C=N\NC(=O)c2ccc(-c3ccccc3)cc2)c(OC)c1OC
→ 4%	-2%
- CC1(C)CC(C)(O)P(=O)(c2ccccc2)O1 (stereo not given)
→ 4%	-8%
- FC(F)(F)c1ccc(N2CCN(c3ncnc4c3nnn4Cc3ccccc3)CC2)nc1
→ 4%	-2%
- O=C(/C(=N\Nc1ccccc1)Sc1nnnn1-c1ccccc1)c1ccccc1
→ 8%	0%
- CC1(C)CC(CCC(=O)NC(=S)Nc2ccccc2Cl)C(=O)O1 (stereo not given)
→ -18%	-12%
- COc1ccc(C(=O)NCC(C)CN(C)C)cc1 (stereo not given)
→ -6%	7%
- Cc1ccc(C)c2[nH]c(=O)c(CN(Cc3cccs3)C(=S)NCc3ccco3)cc12
→ 13%	3%
- O=S(=O)(c1cc(-c2nnc(-c3ccc(Br)cc3)o2)ccc1Br)N1CCCCCC1
→ 2%	2%
- CCNc1nc(NC(C)CC)nc(Oc2ccc(=O)[nH]n2)n1 (stereo not given)
→ 21%	1%
- CC(=O)Nc1cccc(C(=O)OCC(=O)NNC(=O)c2ccc([N+](=O)[O-])cc2)c1
→ -7%	-6%
- CC(C)[C@@H]1C=C(C(=O)O)O[C@H](OCCCCO)C1
→ 6%	8%
- CCOC(=O)C(NC(=O)c1ccccc1)=C1C=C(C)OC(C)=C1
→ -3%	-2%

# (list continues)
SMILES,N370S GC,FEN1 inh
COC(=O)c1ccc(NC(=O)CCc2c(C)nc3ncnn3c2C)cc1,-5%,0%
O=C(c1ccco1)N1CCN(C(=S)Nc2cccc([N+](=O)[O-])c2)CC1,-2%,2%
Oc1ccccc1CNc1ccc(Br)cn1,-23%,-7%
Cn1c(=O)c(C(=O)CN2CCCc3ccccc32)c(N)n(Cc2ccccc2)c1=O,5%,8%
COC(=O)Cc1ccc(NC(=O)c2ccc(Br)o2)cc1,22%,6%
Cc1ccnc(NC(=O)c2ccc3c(c2)OCO3)c1,4%,-1%
Cc1csc2nc(CSc3nc4ccccc4o3)c(Br)n12,6%,-21%
O=C(CCC1CCCC1)N1CCC(N2CCN(c3ccccc3)CC2)CC1,-18%,8%
CCOC(=O)c1cc2c(ccn2C)n1CC(=O)N1CCCC(C)C1 (stereo not given),14%,-16%
COc1cccc(OCCNc2cc(N3CCCCC3)ccc2[N+](=O)[O-])c1,25%,2%
CC(C)C(NC(=O)c1ccc(Cl)cc1Cl)C(=O)N1CCN(S(=O)(=O)c2ccccc2)CC1 (stereo not given),x,-14%
COc1cc2[nH]c3c(N4CCN(c5ccccn5)CC4)ncnc3c2cc1OC,-23%,28µM*

# Pulled by compound from above:
SMILES,N370S GC,FEN1 inh
COC(=O)Cc1ccc(NC(=O)c2ccc(Br)o2)cc1,22%,6%
COc1cc2[nH]c3c(N4CCN(c5ccccn5)CC4)ncnc3c2cc1OC,-23%,28µM*
Cn1c(=O)c(C(=O)CN2CCCc3ccccc32)c(N)n(Cc2ccccc2)c1=O,5%,8%
Cc1ccnc(NC(=O)c2ccc3c(c2)OCO3)c1,4%,-1%

# As entered above.
# Result of CCOC(=O)c1cc2c(ccn2C)n1CC(=O)N1CCCC(C)C1 (stereo not given) under FEN1 inh: -16%
# Result of COc1cccc(OCCNc2cc(N3CCCCC3)ccc2[N+](=O)[O-])c1 under N370S GC: 25%
# Result of CC(C)C(NC(=O)c1ccc(Cl)cc1Cl)C(=O)N1CCN(S(=O)(=O)c2ccccc2)CC1 (stereo not given) under FEN1 inh: -14%
# Result of COC(=O)Cc1ccc(NC(=O)c2ccc(Br)o2)cc1 under N370S GC: 22%

# The list goes on:
SMILES,N370S GC,FEN1 inh
Oc1ccccc1Oc1ncc(Br)c(N2CCOCC2)n1,17%,-1%
CCC(=O)N1c2ccc(S(=O)(=O)CCC(=O)N3CCn4c3nc3ccccc34)cc2CC1C (stereo not given),-1%,5%
CCN(CC)c1ccc2cc(-c3nnc(Nc4ccc(C)cc4)s3)c(=O)oc2c1,x,-4%
O=[N+]([O-])c1cc(O)c2ncccc2c1,-5%,u
COc1ccc(CNC(=O)c2csc(Cc3ccc(OC)cc3)n2)cc1,7%,-15%
CN1CCN(c2ccc(NC(=O)CN3CCOCC3)cc2F)CC1,7%,-8%
CCOC(=O)CSc1nc(-c2ccc(Cl)cc2)cc(C(F)(F)F)c1C#N,x,14%
COc1nc(NCCc2ccc(OC)c(OC)c2)nc(NC(C)(C)CO)n1,-7%,6%
CC(C)=CCC(C)(C)CNC(=O)NC1CCCCC1,9%,4%
CC(C)C[C@@H](CN1C(N)=NC[C@@H]1C)NC(=O)CC12CC3CC(CC(C3)C1)C2,x,1%
COc1cc(OC)cc(-c2c(-c3ccc(F)cc3)c3cc(-c4cccc5[nH]ccc45)ccc3n2C)c1,x,-14%
Cc1n[nH]c(C)c1S(=O)(=O)N1CCc2ccccc2C1,-29%,0%

# (listing goes on)
SMILES,N370S GC,FEN1 inh
CCn1c(/C=C/c2c(C)[nH]c3ccccc23)nc2ccccc2c1=O,-15%,-3%
CCN(c1ccccc1)S(=O)(=O)c1ccc(C(=O)Nc2nccs2)cc1,-18%,-3%
COc1ccc(Nc2nc(C(=O)N3CCc4cc(OC)c(OC)cc4C3)cs2)cc1,-18%,u
Cc1c(C)c(C)c(S(=O)(=O)NCCc2ccccn2)c(C)c1C,-10%,-4%
Clc1ccccc1Cn1nnc2c(NCCN3CCOCC3)ncnc21,-3%,7%
O=C(COC(=O)c1cccs1)c1ccccc1,-1%,4%
Cc1ccc(C)c(NCc2ccccc2CO)c1,2%,3%
CC1CCN(c2ccc(C(=O)NCCc3ccccc3)cn2)CC1,9%,-8%
CC(C)(C)c1nnc2sc(SCC(=O)c3ccccc3)nn2c1=O,28%,0%
CCCCOc1ccccc1-c1cc(C(=O)O)[nH]n1,8%,9%
Cc1ccc(C2=NS(=O)(=O)N(C)C(C(=O)Nc3cc(C)n(CC(=O)N4CCCCC4)n3)=C2)cc1,2%,-12%
O=C(C1CC1)N1CCc2cc(S(=O)(=O)NC3CCN(Cc4ccccc4)CC3)ccc21,16%,-1%

# (list continues)
SMILES,N370S GC,FEN1 inh
O=C1C2CCCN2C(=O)N1CCCCN1CCN(c2cccc(Cl)c2)CC1 (stereo not given),-3%,u
CCOc1ccc(-c2noc(CCCC(=O)NC3CCCCC3)n2)cc1OC,-1%,0%
CCCc1ccc(C(=O)Cn2nc(C(=O)O)c3ccccc3c2=O)cc1,u,0%
c1cncc(CNc2ncnc3sccc23)c1,-13%,-17%
CCc1ccc(NC(=O)CN2C(=O)CC(C)S(=O)(=O)c3ccccc32)cc1 (stereo not given),u,-4%
CCC(=O)Nc1nc2n(n1)C(c1ccc(OC)cc1)C=C(c1ccccc1)N2 (stereo not given),8%,x
Cc1nn2c(-c3cccc(NC(=O)c4ccc(Cl)cc4)c3)nnc2c2ccccc12,x,12%
O=C(CO/N=C/c1ccc(OC(F)F)cc1)NCc1cccs1,-1%,8%
Cc1sc2ncnc(N3CCC(C(=O)Nc4ccc(Br)cc4Br)CC3)c2c1C,-11%,-12%
O=c1c(Cl)c(NCc2ccc(F)cc2Cl)cnn1C12CC3CC(CC(C3)C1)C2,u,-2%
Cc1cc(C)nc(-n2nc(C)c(Sc3ccc(F)cc3)c2N)n1,-17%,-1%
CN(C)CCOC(c1ccccc1)c1ccccc1 (tested in a mixture with another compound),-7%,19%

# Next part
SMILES,N370S GC,FEN1 inh
Cc1cc(C)cc(Oc2coc3c(CN4CCN(C)CC4)c(O)ccc3c2=O)c1,x,-8%
O=C(Nc1ccc(Oc2ccc(Cl)cc2)cc1)c1ncn[nH]1,-3%,2%
O=C(NC(=S)Nc1cccc2ncccc12)c1cccs1,8%,-5%
Cc1ccccc1CNC(=O)c1ccc(-c2nc(CS(=O)(=O)c3ccccc3)c(C)o2)cc1,x,3%
O=C1COc2ccc(C(=O)COC(=O)c3ccc(S(=O)(=O)C(F)F)cc3)cc2N1,-2%,11%

# Source: PubChem BioAssay

# Only part of the results is shown; most or all hits stand in other tables.
